Screens deposited in PubChem by National Center for Advancing Translational Sciences (NCATS).
MARV entry inh: qHTS for Inhibitors of binding or entry into cells for Marburg Virus; Marburg virus pseudotype entry/binding inhibition, cell-based; control for the full effect not named in the record; many of its hits are not listed in these tables; Potency, µM (doses to about 49.2 µM), inactives show at the highest dose activity change, negative = inhibition, actives largely listed as inhibitors; 18,000 tested, 6.5% active; active means well fitted inhibition curve with a large enough effect; inconclusive means small, poorly fitted or top-dose-only effect; inactive means no such curve, though single readings can be large or run the other way; tested in HEK293 cells; also: luciferase read-out
LASV entry inh: qHTS for Inhibitors of binding or entry into cells for Lassa Virus. Lassa virus pseudotyped entry inhibition, cell-based qHTS; control for the full effect not named in the record; many of its hits are not listed in these tables. 18,000 tested, 4.1% active. Potency, µM (highest dose often 49.2 µM), inactives show top-dose activity change, negative = inhibition, most hits filed as inhibitors; active = well fitted inhibition curve with a large enough effect; inconclusive = small, poorly fitted or top-dose-only effect; inactive = no such curve, though single readings can be large or run the other way; tested in HEK293 cells; also: luciferase read-out
An asterisk follows results filed as active; u = inconclusive; x = no result given; & = joins results of further samples; [ ] = another dose, or the depositor's remark. % is scaled to controls: 0 for no effect and ±100 for the full control effect; potency is read from the fitted curve at half-maximal effect.

SMILES	MARV entry inh	LASV entry inh
CCCC[C@@H](C)[C@@H](OC(=O)C[C@@H](CC(=O)O)C(=O)O)[C@H](C[C@@H](C)CCCCCC[C@@H](O)C[C@H](O)[C@H](C)N)OC(=O)C[C@@H](CC(=O)O)C(=O)O	7%	-4%
CCCCCC(=O)N1C[C@@H](O)[C@H](n2cc(C3CC3)nn2)C[C@H]1c1ccc(OC)cc1	-17%	10%
C/C1=C/CC(C)(C)/C=C/C/C(C)=C/CC1	0%	9%
CC(C)C[C@@H](CC(=O)N[C@@H](CCCN)CC(=O)N[C@@H]1CCCC[C@H]1C(=O)N[C@H](CC(=O)N[C@@H](CCC(=O)O)CC(=O)O)Cc1ccccc1)NC(=O)[C@@H]1CNCC[C@H]1N	-21%	-8%
Cc1cnc(CNc2ccnc(-c3ccc(C(=O)N(C)C)cc3)n2)cn1	7%	-6%
CC[C@H](C)[C@@H](NC(=O)O[C@@H]1C(=O)c2ccc(OC)cc2O[C@H]1c1ccc2c(c1)OCO2)C(=O)OC	-22%	0%
CC(C)OC(=O)Nc1ccc2nc(-c3cscn3)[nH]c2c1	-1%	28µM*
CN1CC[C@@]23CCCCC2C1Cc1ccc(O)cc13 (stereo partly specified)	-14%	9%
c1ccc(C2CNCc3ccccc32)cc1 (stereo unspecified)	-14%	-4%
CCCCCC(=O)N1C[C@@H](n2cc(COC(=O)c3ccccc3)nn2)[C@H](O)C[C@H]1c1ccccc1	-15%	15%
CC(C)CC(NC(=O)OCC1c2ccccc2-c2ccccc21)C(=O)O (stereo unspecified)	55%[activator]	37%[activator]
CC(C)[C@@H](OCc1ccccc1)[C@H](C)C=NO[C@H](C)c1cn([C@@H]2COC[C@@H]2O)nn1	-6%[8.59 µM]	7%[8.59 µM]
O=C(NCc1ccc(Cl)cc1)c1ccc(Br)o1	-28%	-5%
Nc1ccc2cc3ccc(N)cc3nc2c1	10µM*	25µM*
C[C@@H]1NC(=O)[C@@H](N)CNC(=O)[C@H](C2CCNC(N)=N2)NC(=O)/C(=C/NC(N)=O)NC(=O)[C@H](CNC(=O)C[C@@H](N)CCCN)NC1=O (stereo partly specified)	5%&-4%	-6%&-16%
C[C@@H]1C(c2ccccc2)=CC(=O)c2nc3ccccc3cc2[C@@H]1C(=O)N1CCCC1	-10%[8.59 µM]	-3%[8.59 µM]
Cc1ccc([C@H]2C[C@H](n3cc(-c4ccc(F)cc4)nn3)[C@@H](O)CN2C(=O)C2CCCCC2)cc1	u	x
ClC(Cl)(Cl)Cl	-10%	3%
N[C@H](Cn1ccc(=O)n(Cc2ccccc2C(=O)O)c1=O)C(=O)O	46%[activator]	7%
CC(C)C[C@H](NC(=O)[C@@H]1CCCN1C(=O)[C@H](Cc1ccccc1)NC(=O)[C@H](C)NC(=O)[C@H](CCC(=O)O)NC(=O)[C@H](C)NC(=O)[C@H](CO)NC(=O)[C@H](CCC(=O)O)NC(=O)[C@H](CC(=O)O)NC(=O)[C@H](CCC(=O)O)NC(=O)[C@H](C)NC(=O)CNC(=O)[C@H](CC(N)=O)NC(=O)[C@@H]1CCCN1C(=O)[C@H](Cc1ccc(O)cc1)NC(=O)[C@@H](NC(=O)[C@H](CCCCN)NC(=O)[C@@H](NC(=O)[C@@H]1CCCN1C(=O)[C@@H](N)CCCNC(=N)N)C(C)C)C(C)C)C(=O)N[C@@H](CCC(=O)O)C(=O)N[C@@H](Cc1ccccc1)C(=O)O	-5%	-7%
O=C(O)c1cc2ccccc2c(Cc2cc3ccccc3c(C(=O)O)c2O)c1O (tested in a mixture with another compound)	5%[17.8 µM]	14%[17.8 µM]
CCCS(=O)(=O)NCc1c(C)ncc2c1CCN(C(=O)/C=C/c1ccc(F)cc1F)C2	-25%	-4%
COc1ccc(C2=CC3=C(Br)C(=O)C(C)(OC(=O)c4cccs4)C(=O)C3=CO2)cc1 (stereo unspecified)	-13%	-8%
Nc1ncnc2c1ncn2[C@@H]1O[C@H](COP(=O)(O)OP(=O)(O)O)[C@@H](O)[C@H]1O	u	u
N#CCCCS(=O)(=O)c1nnnn1-c1ccc(Br)cc1	-1%	-8%
CC(C)CC1C(=O)N(Cc2cn(Cc3ccco3)nn2)CCS(=O)(=O)N1Cc1ccc(-c2ccc(F)nc2)cc1 (stereo unspecified)	u	x
CCOC(=O)C1=CN(CCC=C(C)C)C(=O)NC1c1ccccc1 (stereo unspecified)	7%[8.59 µM]	-16%[8.59 µM]
CC(C)c1ccc(Oc2cccc3c2S(=O)(=O)N([C@H](C)c2ccccc2)C[C@@H](COCc2ccccc2)O3)cc1	u	-29%
O=C(NN=C1C[C@@H](O)[C@H](O)[C@H]2[C@@H]3C(=O)N(Cc4ccc5c(c4)OCO5)C(=O)[C@@H]3CC[C@H]12)OCc1ccccc1	-2%[8.59 µM]	x
CCC1(C2CCN(C(=O)c3coc4c3C(=O)CCC4)CC2)NC(=O)N(CCc2scnc2C)C1=O (stereo unspecified)	7%	1%
O=C(Nc1cc(C(=O)NC2CCOCC2)c2c(c1)ncn2C1CCCC1)c1ccccc1	-3%	2%
CCCCCCCCCCCCCC/C(C(=O)O)=C(\C)C(=O)O	-2%	11%
O=c1oc(-c2ccc(C(F)(F)F)cc2)nn1Cc1cc(Cl)ccc1O	u	u
C/C=C1/CN2CC[C@]34C(=C(C=O)[C@H]1C[C@@H]23)Nc1ccccc14	7%&-21%	-16%&-7%
Cc1cc(C)n(CCC(=O)NCC2Cc3cc(Cl)cc(-c4cnccn4)c3O2)n1 (stereo unspecified)	13%	8%
Cc1ccc2c(c1)Cc1c(C(=O)NC3CCCCC3)nn(-c3ccc(Cl)cc3Cl)c1-2	u	-8%
O=C(C=Cc1ccccc1)Nc1cccc(C(=O)NC2CC2)c1	115%[activator]	43%[activator]
C[C@H](C[C@H](N)C(=O)O)C(=O)O	-3%&7%	-10%&3%
CCCC[C@H]1C(=O)O[C@H](C)[C@H](NC(=O)c2cccc(NC=O)c2OC)C(=O)O[C@@H](C)[C@@H]1OC(=O)CC(C)C	u	u
CC(C)(C)OC(=O)Nc1ccc(OCc2cn(CC(=O)c3ccc(O)cc3)nn2)cc1	17%	27%
O=C(NCCCc1ccccc1)c1cccc(NC(=O)C2CCCCC2)c1	17%	x
C=COCCN1C=C(C(=O)OCC)C(c2ccccc2)NC1=O (stereo unspecified)	10%[8.59 µM]	18%[8.59 µM]
CC(=O)[C@H]1[C@H](CCc2ccccc2)NC(=O)N(Cc2ccccc2)[C@@H]1C	19%[8.59 µM]	-35%[8.59 µM]
CC(=O)Nc1ccccc1-c1nc(CNC(=O)c2ccc(C)cc2)c(C)o1	-6%	4%
Nc1c(S(=O)(=O)O)cc(Nc2cccc3ccccc23)c2c1C(=O)c1ccccc1C2=O	5%	-15%
C/C=C1\C2C=C(C)CC1(N)c1ccc(=O)[nH]c1C2 (stereo unspecified)	u	-5%
CC12C=C(C=Cc3ccccc3)C(C)(C1)C(c1ccccc1)CC2=O (stereo unspecified)	-4%[8.59 µM]	-11%[8.59 µM]
CCN1C[C@]2(C)CC[C@H](OC)[C@]34C5C[C@@H]6CC[C@@](O)(C5C(=O)O6)C(C13)[C@@H](OC(=O)c1ccccc1)C24	-17%	-14%
CC(C)[C@@H](OCc1ccccc1)[C@H](C)CON=C1[C@H]2CCn3c(=O)n(-c4ccccc4)c(=O)n3[C@@H]2[C@H](O)[C@@H]2O[C@H]12	25%[8.59 µM]	10%[8.59 µM]
CC(C)Cc1ccc(CN2C(C(C)C)C(=O)N(Cc3cn(CCC4OCCO4)nn3)CCS2(=O)=O)cc1 (stereo unspecified)	-29%	x
N[C@H](CO)Cc1cnc[nH]1	2%	-16%
COCOCCn1cc(CN2CCS(=O)(=O)N(Cc3ccc(-c4ccc(F)nc4)cc3)C(C(C)C)C2=O)nn1 (stereo unspecified)	18%	7%
O=S1(=O)CC(N2CCC(Cc3ccccc3)CC2)CN1CCc1ccccc1 (stereo unspecified)	-13%	-25%
CC1(C)OC2CC3C4CC(F)C5=CC(=O)CC[C@@]5(C)C4C(O)C[C@@]3(C)[C@]2(C(=O)CO)O1 (stereo partly specified)	7%	-11%
O=C1OCCN1C(=O)[C@H]1[C@H](c2ccccc2)C(c2cccc(Cl)c2)=NN1c1ccccc1	-15%	-27%
COCC=CC1=CC2=CC(=O)C(C)(OC(=O)c3cnc4ccccc4n3)C(=O)C2=CN1C1CC1 (stereo unspecified)	32%[activator][8.59 µM]	6%[8.59 µM]
C[C@@H]1CN(CCCn2c3ccccc3c3ccccc32)C[C@H](C)N1	7.9µM*	18µM*
COc1ccc2c(c1)C(=O)[C@H](OC(=O)NCCOc1ccccc1)[C@@H](c1ccc(OC)c(Br)c1)O2	4%	0%
COc1c(O)cccc1O	-14%	-2%
Cc1cc(C(C)(C)C)c(O)c(C)c1CC1=NCCN1	u	-16%

Next compounds
SMILES	MARV entry inh	LASV entry inh
COc1ccc2c(c1)OC/C(=C\c1ccc(OC)c(O)c1)C2=O	13µM*	-17%
COc1cccc(CN2CCC(c3nnc(SCC4CCCO4)n3C)CC2)c1O (stereo unspecified)	2%	-3%
COc1cc(N(C)C)cc(CN(C)CCc2ccc([N+](=O)[O-])cc2)c1O	u	2%
C[C@H](NC(=O)[C@@H](Cc1c[nH]c2ccccc12)NC(=O)[C@@H](N)Cc1cnc[nH]1)C(=O)N[C@@H](Cc1c[nH]c2ccccc12)C(=O)N[C@H](Cc1ccccc1)C(=O)N[C@@H](CCCCN)C(N)=O	-3%	-15%
CC(C)C(=O)NCC1CCC2(CCN(Cc3ccc(-c4cccc(Cl)c4)o3)CC2)O1 (stereo unspecified)	41%[activator]	8%
CCCCCCCCCCCCCCCC(=O)O[C@@H]1[C@@H](O)[C@@H](O)[C@@H]([C@H](NC(=O)[C@@H]2C[C@@H](CCC)CN2C)[C@H](C)Cl)O[C@@H]1SC	-13%	-24%
CCCCCCCCCCCCCCCC(=O)OC[C@H](COP(=O)([O-])OCC[N+](C)(C)C)OC(C)=O	12%&-16%	-8%&7%
